# Screening results from PubChem BioAssay.
# Vaccinia stage: blocks a specific stage of Vaccinia orthopoxvirus infection; Vaccinia-infected cells, mCherry/Venus stage reporter fluorescence; active compounds read low; some inactives read as strong as hits; activity change (mCherry), % (test concentration not listed); 89,000 compounds, 0.01% hits;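 active means mCherry past -33% and 40 or more points under the early reporter, replicates agreeing; inconclusive means past -33% without that gap or agreement; tested in A549 cells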;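 further: scaled between vehicle wells and reference inhibitor wells; 23 nL library stock went into each well; one replicate is shown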
# Vaccinia stage Venus: second read-out of Vaccinia stage, no call of its own (marks repeat the call); activity change (Venus), %; measured here: Venus reporter, other viral stage;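 negative = less Venus signal; first of two replicates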
# The depositor's hits bear a star; ? = inconclusive; . = not tested or not shown; & = joins results of further samples.
compound | Vaccinia stage | Vaccinia stage Venus
COc1ccc(NC(=O)Nc2cccc3c2O[C@H](CN(C)C(=O)Nc2c(C)noc2C)[C@H](C)CN([C@@H](C)CO)C3=O)cc1 | 0.4 | -9.4
Cc1noc(C)c1NC(=O)Nc1cccc2c1O[C@H](CN(C)Cc1ccc3c(c1)OCO3)[C@@H](C)CN([C@@H](C)CO)C2=O | -4.6 | -2.6
OC[C@@H]1[C@@H](c2ccc(Br)cc2)[C@@H]2CN(Cc3cncnc3)CCCCN12 | 17.6 | -2.2
COCc1cn(CC[C@H]2CC[C@H](NC(=O)c3ccc(F)cc3)[C@@H](CO)O2)nn1 | -3.6 | 6.3
C[C@H]1CN([C@@H](C)CO)C(=O)Cc2cc(NC(=O)NC3CCCCC3)ccc2O[C@H]1CN(C)Cc1ccc(C(=O)O)cc1 | 20.9 | 11.3
CCNC(=O)C[C@H]1CC[C@@H](NC(=O)C2CCOCC2)[C@H](CO)O1 | -9.0 | -10.8
Cc1cccc(S(=O)(=O)N2C[C@H](O)COC[C@@H]3O[C@H](CC(=O)Nc4ccc(-c5ccccc5)cc4)CC[C@H]32)c1 | ? | .
CN1CCN(C(=O)C[C@@H]2C[C@@H]3c4cc(NC(=O)Cc5ccncc5)ccc4O[C@@H]3[C@@H](CO)O2)CC1 | 5.3 | 7.1
C#CCN([C@H](/C=C/C1CC1)[C@@H](O)Cc1ccccc1)[C@@H]1C(=O)N2[C@@H]1SC(C)(C)[C@@H]2C(=O)OC | 10.5&-9.2 | 7.6&-11.6
Cc1noc(C)c1NC(=O)NCC[C@@H]1CC[C@H](NC(=O)c2ccccc2)[C@H](CO)O1 | 2.3 | 2.4
COc1ccc(NC(=O)N(C)C[C@H]2Oc3ncc(C#C[C@H](C)O)cc3C(=O)N([C@H](C)CO)C[C@@H]2C)cc1 | 20.3 | 1.9
COc1cccc(C#Cc2ccc([C@@H]3[C@@H](C#N)N(C(=O)C4CC4)[C@H]3CO)cc2)c1 | -18.8 | -16.5
C[C@H](CO)N1C[C@H](C)[C@@H](CN(C)C(=O)Nc2ccc3c(c2)OCO3)Oc2cc(C#Cc3ccncc3)ccc2S1(=O)=O | ? | .
N#C[C@H]1[C@@H](c2ccc(C3=CCCC3)cc2)[C@H](CO)N1C(=O)NC1CCCCC1 | 1.1 | 7.3
C[C@H]1CN([C@@H](C)CO)C(=O)c2cc(NC(=O)CCC(F)(F)F)ccc2O[C@@H]1CN(C)Cc1ccc(Oc2ccccc2)cc1 | 8.4 | 5.3
C[C@@H]1CN([C@@H](C)CO)C(=O)c2cc(C#Cc3ccncc3)cnc2O[C@@H]1CN(C)C(=O)c1ccccc1F | 0.0 | 8.2
C[C@@H]1CCCCO[C@H](CN(C)S(C)(=O)=O)[C@@H](C)CN([C@@H](C)CO)C(=O)c2cc(NC(=O)CCCN(C)C)ccc2O1 | 6.3 | -1.3
CC(=O)N(C)C[C@H]1Oc2cc(C#Cc3cccnc3)ccc2S(=O)(=O)N([C@H](C)CO)C[C@@H]1C | 17.1 | 0.6
CNC[C@@H]1OCCCC[C@H](C)Oc2ccc(NC(=O)c3ccncc3)cc2C(=O)N([C@H](C)CO)C[C@H]1C | 10.1 | 10.5
CS(=O)(=O)N1[C@H](C#N)[C@H](c2ccccc2-c2ccc(F)cc2)[C@@H]1CO | -1.7 | -0.2
Cc1noc(C)c1S(=O)(=O)Nc1ccc2c(c1)C(=O)N([C@@H](C)CO)C[C@H](C)[C@@H](CN(C)C(=O)Nc1ccc3c(c1)OCO3)O2 | 11.6 | 25.1
CO[C@H]1CN(C)C(=O)c2ccc(NS(=O)(=O)c3ccc(-c4ccccc4)cc3)cc2OC[C@H](C)NC[C@H]1C | 2.0 | 5.2
Cc1noc(C)c1NC(=O)N(C)C[C@@H]1Oc2ccc(NC(=O)C3CC3)cc2CC(=O)N([C@H](C)CO)C[C@H]1C | -3.8 | -4.0
CCCNC(=O)N1[C@@H]2Cn3c(ccc(-c4ccc(OC)cc4)c3=O)[C@H]1[C@@H](C(=O)NC1CCC1)[C@@H]2CO | 7.0 | 9.5
COc1ccc(NC(=O)N(C)C[C@H]2OCc3cnnn3CCCC(=O)N([C@@H](C)CO)C[C@@H]2C)cc1 | 12.4 | -1.3

# Next records
compound | Vaccinia stage | Vaccinia stage Venus
Cn1cnc(S(=O)(=O)N2CCCCN3[C@H](C2)[C@@H](c2ccc(C#CC4CCCC4)cc2)[C@@H]3CO)c1 | ? | .
CC(C)CC#Cc1cnc2c(c1)C(=O)N([C@@H](C)CO)C[C@@H](C)[C@@H](CN(C)Cc1ccccc1)O2 | ? | .
CO[C@@H]1CN(C)C(=O)c2cc(NS(=O)(=O)c3c(C)noc3C)ccc2OC[C@H](C)NC[C@H]1C | 6.9 | 5.0
Cc1noc(C)c1S(=O)(=O)N(C)C[C@@H]1Oc2ccc(NC(=O)Nc3cccc4ccccc34)cc2CC(=O)N([C@@H](C)CO)C[C@@H]1C | -13.5 | 1.6
O=C(C[C@@H]1CC[C@@H]2[C@H](COC[C@@H](O)CN2Cc2ccccc2)O1)N[C@@H]1CCN(Cc2ccccc2)C1 | -15.4 | -6.6
C[C@H]1CCCCO[C@@H](CN(C)Cc2ccncc2)[C@@H](C)CN([C@@H](C)CO)C(=O)c2cc(NC(=O)c3ccccc3)ccc2O1 | -5.0 | -5.3
O=C(C1=C[C@@H](c2ccc(C(F)(F)F)cc2)C[C@@H](OCc2ccc(CO)cc2)O1)N1CCCC1 | -12.6 | -21.3
CO[C@@H]1CN(C)C(=O)c2cc(NC(=O)C3CC3)ccc2OC[C@@H](C)N(CC2CCOCC2)C[C@@H]1C | 15.2 | 6.8
C[C@H]1CN([C@@H](C)CO)C(=O)CCCn2nncc2CO[C@@H]1CN(C)S(=O)(=O)c1cccc(C#N)c1 | 10.2 | 10.7
C[C@@H]1CN([C@@H](C)CO)S(=O)(=O)c2ccc(C#CC3CC3)cc2O[C@@H]1CN(C)C(=O)CN(C)C | 12.0 | 13.4
C[C@@H]1CN([C@H](C)CO)C(=O)Cc2cc(NC(=O)Cn3cnnn3)ccc2O[C@@H]1CN(C)Cc1ccc2c(c1)OCO2 | 22.0 | 25.9
O=C(N[C@@H]1CC[C@@H](CCn2cc(-c3ccccn3)nn2)O[C@@H]1CO)c1ccccc1 | 5.8 | -1.8
N#C[C@H]1[C@H](c2ccc(-c3ccccc3F)cc2)[C@H](CO)N1C(=O)C1CCC1 | -20.3 | -6.4
CN1CCN(C(=O)C[C@H]2CC[C@H]3[C@@H](COC[C@H](O)CN3C(=O)C3CC3)O2)CC1 | 6.9 | 7.0
C[C@@H]1CN([C@@H](C)CO)C(=O)c2cc(C#Cc3ccccc3)cnc2O[C@H]1CN(C)C(=O)CCN1CCCCC1 | -30.9 | -19.2
O=C(N[C@@H]1CC[C@@H](CCn2cc(C3CCCC3)nn2)O[C@@H]1CO)c1cccnc1 | 12.1 | 0.1
COCC(=O)Nc1ccc2c(c1)[C@@H]1C[C@@H](CC(=O)NCc3ccc4c(c3)OCO4)O[C@H](CO)[C@@H]1O2 | 16.1 | 11.3
CC(C)NC(=O)Nc1ccc2c(c1)C(=O)N([C@@H](C)CO)C[C@H](C)[C@H](CN(C)Cc1ccc(C(=O)O)cc1)OCCCC[C@@H](C)O2 | 11.3 | 2.8
O=C(C[C@@H]1CC[C@@H](NS(=O)(=O)c2ccccc2)[C@H](CO)O1)N1CCN(c2ccccc2)CC1 | 11.2 | 5.1
O=C(Nc1ccc(F)cc1)N1CCCCN2[C@@H](CO)[C@@H](c3ccc(-c4cccc(F)c4)cc3)[C@@H]2C1 | ? | .
O=C(Cc1ccccc1)N1CC(=O)N2[C@H](C1)[C@H](c1ccc(-c3cccc(F)c3)cc1)[C@@H]2CO | 18.9 | 15.6
C[C@@H]1CN([C@@H](C)CO)C(=O)c2c(c3ccccc3n2C)-c2ccccc2CO[C@@H]1CN(C)C(=O)c1ccncc1 | 9.7 | -0.2
C[C@@H]1CN([C@@H](C)CO)C(=O)c2cccc(NC(=O)Nc3ccccc3)c2O[C@@H]1CN(C)Cc1ccc(C(=O)O)cc1 | 9.4 | 9.6
COc1ccc(S(=O)(=O)N(C)C[C@@H]2Oc3c(NC(=O)C4CCOCC4)cccc3C(=O)N([C@H](C)CO)C[C@@H]2C)cc1 | 10.0 | 1.3
COc1ccccc1-c1ccc2n(c1=O)C[C@H]1[C@H](CO)[C@@H](C(=O)NCC3CC3)N(S(C)(=O)=O)[C@@H]21 | 3.0 | 3.9

# (further entries)
compound | Vaccinia stage | Vaccinia stage Venus
C[C@@H]1CN([C@@H](C)CO)C(=O)c2cc(N(C)C)ccc2O[C@@H](C)CCCCO[C@@H]1CN(C)C(=O)Cc1ccccc1 | 7.6 | 7.6
O=C(Nc1cccc(F)c1)N1CCCCN2[C@H](CO)[C@H](c3ccc(C#CC4CC4)cc3)[C@H]2C1 | ? | .
COCCN(C[C@@H]1[C@@H](c2ccccc2)[C@H](CO)N1C(=O)C1CCC1)C(C)=O | 11.0 | 8.5
C[C@@H]1CN([C@H](C)CO)C(=O)c2cc(NC(=O)Nc3ccccc3)ccc2O[C@@H](C)CCCCO[C@@H]1CN(C)Cc1ccc2c(c1)OCO2 | ? | .
CCCC(=O)Nc1ccc2c(c1)C(=O)N(C)[C@H]1CC[C@H](CC(=O)N3CCCCC3)O[C@H]1CO2 | 8.3 | 1.3
O=C(C[C@@H]1C[C@H]2c3cc(NC(=O)c4cccnc4)ccc3O[C@H]2[C@H](CO)O1)NCC(F)(F)F | -4.6 | 3.7
C[C@@H]1CN([C@@H](C)CO)S(=O)(=O)c2ccc(C#C[C@@H](C)O)cc2O[C@H]1CN(C)C(=O)CN(C)C | -4.5 | 1.3
C[C@@H]1CN([C@@H](C)CO)C(=O)c2cc(NC(=O)Cc3ccccc3)ccc2O[C@@H]1CN(C)C(=O)Nc1ccc(C(F)(F)F)cc1 | ? | .
CNC[C@@H]1Oc2ccc(N(C)C)cc2C(=O)N([C@H](C)CO)C[C@@H]1C | -6.4 | -3.0
CN1C(=O)c2cc(NC(=O)Nc3ccc(F)cc3)ccc2OC[C@@H]2O[C@@H](CC(=O)NC3CCC3)CC[C@@H]21 | 3.6 | 1.5
C[C@@H]1CCCCO[C@@H](CN(C)C(=O)Nc2cccc3ccccc23)[C@@H](C)CN([C@H](C)CO)C(=O)c2cc(NC(=O)Nc3ccc(F)cc3)ccc2O1 | 39.8 | 9.5
COc1ccc(C#Cc2ccc([C@@H]3[C@@H](CO)N4CCCCN(S(=O)(=O)c5cn(C)cn5)C[C@@H]34)cc2)cc1 | ? | .
C[C@@H]1CN([C@@H](C)CO)C(=O)c2cccc(NC(=O)NC3CCCCC3)c2O[C@@H]1CN(C)S(=O)(=O)c1ccccc1 | -8.3 | -7.8
CCCN(C)C[C@H]1OCCCC[C@H](C)Oc2ccc(NS(=O)(=O)c3c(C)noc3C)cc2C(=O)N([C@@H](C)CO)C[C@H]1C | -7.1 | -14.4
COc1cccc(NC(=O)N[C@H]2C=C[C@@H](CC(=O)N3CCN(C)CC3)O[C@@H]2CO)c1 | 12.0 | 15.1
C[C@@H]1CN([C@H](C)CO)C(=O)c2cccc(NS(C)(=O)=O)c2O[C@H]1CN(C)C(=O)Nc1cccc2ccccc12 | -5.4 | -11.1
COc1ccc(NC(=O)N(C)C[C@H]2OCCCC[C@@H](C)Oc3ccc(NC(=O)CCCN(C)C)cc3C(=O)N([C@H](C)CO)C[C@H]2C)cc1 | 25.0 | 19.3
CCCC(=O)Nc1ccc2c(c1)C(=O)N(C)C[C@@H](OC)[C@H](C)CN(CCc1ccccc1)[C@H](C)CO2 | -23.7 | -18.9
COc1cccc(-c2cn(CC[C@@H]3CC[C@@H](NC(C)=O)[C@H](CO)O3)nn2)c1 | 6.2 | 2.5
O=C(N[C@H]1CC[C@@H](CCNS(=O)(=O)c2ccc(Cl)cc2)O[C@@H]1CO)c1cnccn1 | -15.5 | -11.3
COc1ccc(S(=O)(=O)Nc2ccc3c(c2)C(=O)N([C@@H](C)CO)C[C@@H](C)[C@@H](CN(C)C(=O)Nc2ccc(C(F)(F)F)cc2)OCCCC[C@@H](C)O3)cc1 | 3.2 | -7.6
C[C@H]1CN([C@@H](C)CO)C(=O)c2cc(NC(=O)c3ccncc3)ccc2O[C@@H]1CN(C)C(=O)Nc1ccc(C(F)(F)F)cc1 | 8.9 | 16.3
COc1ccc(CN(C)C[C@H]2Oc3ccc(NS(=O)(=O)c4c(C)noc4C)cc3CC(=O)N([C@@H](C)CO)C[C@H]2C)cc1 | -3.7 | -1.3
COc1ccc2c3c(n(C)c2c1)[C@H](CO)N(C(=O)Nc1cccc(F)c1)CC31CN(C)C1 | ? | .
CO[C@H]1CN(C)C(=O)c2cc(NC(=O)Nc3ccccc3F)ccc2OC[C@H](C)N(C(C)=O)C[C@@H]1C | -12.9 | -6.6

# 4 compounds from above, ordered by SMILES length, lowest first:
compound | Vaccinia stage | Vaccinia stage Venus
CNC[C@@H]1Oc2ccc(N(C)C)cc2C(=O)N([C@H](C)CO)C[C@@H]1C | -6.4 | -3.0
COc1cccc(NC(=O)N[C@H]2C=C[C@@H](CC(=O)N3CCN(C)CC3)O[C@@H]2CO)c1 | 12.0 | 15.1
CO[C@H]1CN(C)C(=O)c2ccc(NS(=O)(=O)c3ccc(-c4ccccc4)cc3)cc2OC[C@H](C)NC[C@H]1C | 2.0 | 5.2
Cc1noc(C)c1NC(=O)N(C)C[C@@H]1Oc2ccc(NC(=O)C3CC3)cc2CC(=O)N([C@H](C)CO)C[C@H]1C | -3.8 | -4.0

# Other compounds
compound | Vaccinia stage | Vaccinia stage Venus
C[C@H](CO)N1C[C@H](C)[C@H](CN(C)Cc2ccncc2)Oc2ccc(NS(=O)(=O)c3ccccc3)cc2C1=O | 5.1 | 4.1
C[C@H]1CN([C@@H](C)CO)C(=O)c2c(c3ccccc3n2C)-c2ccccc2CO[C@@H]1CN(C)S(=O)(=O)c1ccccc1 | ? | .
CCNC(=O)C[C@@H]1CC[C@H]2[C@H](COc3ccc(NC(=O)Nc4ccccc4C)cc3C(=O)N2C)O1 | -3.2 | -1.7
Cc1cc(C(=O)Nc2cccc3c2O[C@@H](CN(C)S(=O)(=O)c2ccc(Cl)cc2)[C@@H](C)CN([C@@H](C)CO)C3=O)n(C)n1 | 8.1 | 5.0

# An excerpt, so the mix of outcomes need not match the whole.
